PrP 5UTR inh: inhibition of PrP 5' UTR reporter expression; cell-based PrP 5' UTR mRNA reporter, plate reader; inhibition, % (no concentration beside the values); AID 488862; 0.35% of 340,000 active;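 active means every replicate at 50% or more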;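 further: 0 = median of the neutral control wells; tested in H4 reporter cells; numbers are from one replicate; inactives centre near -14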
Mtb hypoxia rep: reduces hypoxia-regulated biosensor signal in M. tuberculosis | M. tuberculosis hypoxia-regulated fluorescent reporter, fluorescence | fluorescence inhibition, % (concentration not given with the values) | 0.1% of 300,000 active;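 active means 35 to 45% if threefold the growth effect, above 45% if 1.5-fold the growth effect; inactive means the rest, general growth blockers included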;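 further: wells of about 50 µL received 100 nL stock; 0% = vehicle wells and 100% = reference inhibitor wells; whole bacteria with a GFP reporter of the hypoxia response; strong numbers were not always called active; many hits fall short of the cut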
ugtP null kill: compounds lethal to S. aureus RN4220 ugtP deletion mutant; OD600 growth, 16 h; some inactives read as strong as hits; growth inhibition, % (test concentration not listed); 0.54% of 330,000 active; AID 1259309;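 active means z-score under -3 and OD600 up to 0.15 on both plates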;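 further: plate controls were untreated wells for no effect and antibiotic for full effect; wells of about 80 µL received 100 nL stock; the first replicate is given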
BJeLR lethal: kills HRASV12-expressing BJeLR cells. BJeLR (HRASV12) viability, CellTiter-Glo ATP luminescence, 48 h; reference of the scale not given here. inhibition, % (test concentration not listed). 0.17% of 300,000 active;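 active means replicate mean above 50%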;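 further: 50 nL library stock added to about 25 µL; numbers are from one replicate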
Sa RN4220 lethal: kills Staphylococcus aureus RN4220; 0.33% of 330,000 active; inhibition, % (no concentration beside the values); S. aureus RN4220 growth, OD600, 16 h; AID 1259311;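 active means z-score of -3 or lower and OD600 up to 0.18 on both plates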;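 further: plate controls were untreated cells for no effect and reference antibiotic for full effect; stock transfer was 100 nL into about 80 µL; one replicate is shown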
Bead autofluor: counter-screen for toxin protease inhibitors: compound fluorescence; compound autofluorescence counterscreen, microsphere flow cytometry; active compounds read high; fluorescence intensity (test concentration not listed); 3.1% of 360,000 active;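 active means at least 3 SD above the mean of all compounds, about 16000 in these data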;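 further: 100 nL of 1 mM stock went into each well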
Mtb hypoxia rep growth: further read-out of Mtb hypoxia rep, marked with its call; growth inhibition, %; measured here: M. tuberculosis growth (absorbance);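 0% = vehicle and 100% = reference antibiotic; read after six days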
Starred values were filed as active, the others as inactive; / = no result given; & = joins results of further samples.

SMILES	PrP 5UTR inh	Mtb hypoxia rep	Mtb hypoxia rep growth	ugtP null kill	BJeLR lethal	Sa RN4220 lethal	Bead autofluor
Cc1ccc(C)c(S(=O)(=O)NCc2ccncc2)c1	-8	19	14	-9	-2	6.9	3790
COc1ccc(C)cc1NC(=O)C1CCN(S(=O)(=O)c2cccs2)CC1	-35	11	2	0	0	2.8	5718
COc1ccc(C2=CC(c3ccc(OC)c(OC)c3)n3nnnc3N2)c(OC)c1 (stereo not drawn)	0	-7	10	0	-10	1.4	4097
O=C(CNC(=O)c1ccccc1F)NCCN1C(=O)S/C(=C\c2ccc3c(c2)OCO3)C1=O	1	2	1	-3	/	6.6	2856
CC(=O)C1CCC2C3CCC4=CC(=O)CCC4(C)C3(Br)C(=O)CC12C (stereo not drawn)	-44	10	10	-4	/	7.6	3721
CC1(C)CC(=O)C2=C(C1)OC(N)=C(C#N)C2c1cc2c(cc1[N+](=O)[O-])OCO2 (stereo not drawn)	-16	1	-4	4	-1	8.1	2691
COc1cc(C(=S)N2CCN(c3cccc(Cl)c3)CC2)ccc1O	-8	-4	5	-19	-15	-8.0	3222
CCOC(=O)N1C2=NC(C(=O)OC)=C(C(=O)OC)C3N(C)c4ccccc4[C@]23CC1C(=O)OC (stereo partly drawn)	/	16	3	2	/	8.3	/
O=C(Nc1ccc2c(c1)OCO2)C1CC(=O)N(CCc2ccccc2)C1 (stereo not drawn)	-11	1	-1	0	-14	1.1	4026
CC(C)CCNC(=O)C(c1cccs1)N(CC1CCCO1)C(=O)Cn1nnc2ccccc21 (stereo not drawn)	-17	2	3	4	-3	7.8	2504
CCC(C)c1cc(S(=O)(=O)N2CCOCC2)ccc1OC (stereo not drawn)	-18	/	/	-7	/	9.0	3252
CC(C)NC(=O)C(c1ccc(F)cc1)N(C(=O)CCC(=O)Nc1ccccn1)c1cccc(F)c1 (stereo not drawn)	-3	-10	-8	-6	1	-3.7	3207
O=C(N/N=C/c1cn(-c2cccs2)nc1-c1ccccc1)c1ccccc1Cl	-31	/	/	/	0	/	2438
COc1cc(NC(=O)NC(C)(C(F)(F)F)C(F)(F)F)cc(OC)c1OC	-9	4	6	-6	2	7.3	3268
CCOc1ccccc1OCC(=O)NN=C1CCCC(=O)C1	-9	7	5	8	/	2.4	3039
O=C1CS/C(=N/N=C2C3CC4CC(C3)CC2C4)N1	-13	19	0	1	-12	0.4	2617
CCC(O)(Cc1ccccn1)Cc1ccccn1	-23	5	6	-4	/	3.5	3966
CCOC(=O)C1(Cc2ccccc2)CCN(Cc2cn[nH]c2-c2ccccc2)CC1	-24	-12	5	-5	-4	-1.2	2182
COc1ccc(C)cc1NC(=O)NCCCCc1ccccc1	-19	3	3	9	0	-2.4	5259
OC(COCc1cccs1)CN1CCCCCC1 (stereo not drawn)	-14	/	/	13	-1	4.3	3334
c1ccc2c(c1)NCCS2	-5	10	7	1	-13	3.3	4394
CCOC(=O)C1C2COc3ccccc3C2N2C(=O)N(c3ccc(OC)cc3)C(=O)[C@]12C (stereo partly drawn)	/	-2&9	-4&4	0&-6	/	7.1&4.0	/
COc1ccc(C(=O)N2CCN(c3ccc(C)cc3C)CC2)cc1OC	-12	/	/	4	-1	3.1	5413
CCCCCc1ccc(OCCCC[n+]2ccc(C)cc2)c(CCCCC)c1	-3	/	/	100*	/	99*	3514
COc1ccccc1N1CCN(C2CCCN(C(=O)c3ccoc3C)C2)CC1 (stereo not drawn)	-12	2	-8	8	1	2.4	6311

The last 2 compounds of the section above are carried over, then new ones follow:
SMILES	PrP 5UTR inh	Mtb hypoxia rep	Mtb hypoxia rep growth	ugtP null kill	BJeLR lethal	Sa RN4220 lethal	Bead autofluor
CCCCCc1ccc(OCCCC[n+]2ccc(C)cc2)c(CCCCC)c1	-3	/	/	100*	/	99*	3514
COc1ccccc1N1CCN(C2CCCN(C(=O)c3ccoc3C)C2)CC1 (stereo not drawn)	-12	2	-8	8	1	2.4	6311
COCC(=O)N1CCCC(C(=O)c2ccc(-c3ccccc3)cc2)C1 (stereo not drawn)	-32	21	3	13	-5	1.5	4258
CCCCN1CC(=O)N2[C@H](c3ccc(OC)cc3)[C@@H]3C(=O)N(CC)C(=O)[C@@H]3[C@]2(C)C1=O	-14	/	/	/	4	/	3555
COCCCN(C(=O)CCOc1ccc(C(C)(C)C)cc1)c1c(N)n(Cc2ccccc2)c(=O)[nH]c1=O	-16	3	1	4	-3	5.5	5829
Fc1ccc(CSc2nnc(-c3cccnc3)n2Cc2ccco2)cc1	-13	-2	-1	-7	-1	-0.5	6520
Cc1ccc(CCNS(=O)(=O)c2ccc3c(c2)NC(=O)CCS3)cc1	-13	-6	-4	3	4	4.0	5034
CCn1c(SCC(=O)Nc2nccs2)nnc1-c1ccc(S(=O)(=O)N2CCCCC2)cc1	-1	0	7	-7	-5	4.1	3676
C=CCN1C(=O)c2ccccc2Sc2ccc(C(=O)N3CCN(C)CC3)cc21	-26	-1	7	-7	-7	-10.0	2455
CCc1nc2ccc(C(=O)Nc3ccc(NC(C)=O)cc3)cc2nc1CC	-13	4	0	6	9	4.9	2488
O=C(Nc1ccc(N2CCOCC2)cc1)c1cccc(S(=O)(=O)N2CCCC2)c1	3	4	4	3	-2	1.7	25105*
CN(C)c1ccc(N2CC(C)(C)C2=O)cc1	-23	17	5	3	8	12	5193
COc1cccc(N(C(=O)c2sc(C)nc2C)C(C(=O)NCC2CCCO2)c2ccccc2)c1 (stereo not drawn)	-7	9	5	2	-8	4.8	6260
CNNC(=O)C(C)NC(=O)c1ccc(Br)cc1 (stereo not drawn)	/	12	6	10	-4	5.5	11286
CCN1CCN(C2CCCCC2NS(=O)(=O)c2ccc(Cl)cc2)CC1 (stereo not drawn)	-12	4	-7	4	-6	1.0	5576
Cc1ccc(Cl)cc1NC(=O)Cn1cc(C(F)(F)F)cc(Cl)c1=O	-10	1	6	-6	-26	5.3	2470
COc1ccc(Nc2nc(C)nc3c2nnn3Cc2ccccc2Cl)c(OC)c1	-12	-1	14	7	-6	1.9	4064
Cc1cccc(NC(=O)CCCC(=O)OC(C)C(=O)c2ccccc2)c1 (stereo not drawn)	-91	8	16	5	2	1.5	5216
Cc1c(OC(C(=O)O)c2ccccc2)ccc2c1oc(=O)c1ccccc12 (stereo not drawn)	-6	-2	-13	13	-4	9.7	3900
CC(C)Oc1cccc(NC(=O)c2cnccc2C(F)(F)F)c1	-19	7	2	7	-4	0.4	5461
Cc1ccc(NC(=O)c2ccc(-n3cccn3)c([N+](=O)[O-])c2)cc1	-8	7	-5	-3	-6	8.8	16419*
CC(C)(C)c1ccc(C(=O)NCC(=O)OCC(=O)N2CCN(S(=O)(=O)c3ccc(Cl)cc3)CC2)cc1	-39	5	6	0	-2	-1.9	5216
O=C(OCc1cc(Cl)ccc1OC(F)F)c1cc(S(=O)(=O)O)ccc1O	/	1	5	10	/	2.0	/
O=C1N=c2ccccc2=C1c1[nH]c(=S)[nH]c1O	-12	12	5	7	1	6.9	7497
NC(CCC(=O)O)C12CC3CC(CC(C3)C1)C2 (stereo not drawn)	-13	6	9	4	-1	3.8	2893
COc1ccccc1N(CC(O)Cn1ccnc1C)S(=O)(=O)c1ccccc1 (stereo not drawn)	-11	6	3	0	10	2.2	2088
O=C(NCC1CCCO1)NC12CC3CC(CC(C3)C1)C2 (stereo not drawn)	-13	20	8	9	-21	3.9	9441

A draw from above in order of count of non-hydrogen atoms, highest first.
SMILES	PrP 5UTR inh	Mtb hypoxia rep	Mtb hypoxia rep growth	ugtP null kill	BJeLR lethal	Sa RN4220 lethal	Bead autofluor
COCCCN(C(=O)CCOc1ccc(C(C)(C)C)cc1)c1c(N)n(Cc2ccccc2)c(=O)[nH]c1=O	-16	3	1	4	-3	5.5	5829
CC(C)(C)c1ccc(C(=O)NCC(=O)OCC(=O)N2CCN(S(=O)(=O)c3ccc(Cl)cc3)CC2)cc1	-39	5	6	0	-2	-1.9	5216
COc1cccc(N(C(=O)c2sc(C)nc2C)C(C(=O)NCC2CCCO2)c2ccccc2)c1 (stereo not drawn)	-7	9	5	2	-8	4.8	6260
CCn1c(SCC(=O)Nc2nccs2)nnc1-c1ccc(S(=O)(=O)N2CCCCC2)cc1	-1	0	7	-7	-5	4.1	3676
CCCCN1CC(=O)N2[C@H](c3ccc(OC)cc3)[C@@H]3C(=O)N(CC)C(=O)[C@@H]3[C@]2(C)C1=O	-14	/	/	/	4	/	3555
COc1ccc(Nc2nc(C)nc3c2nnn3Cc2ccccc2Cl)c(OC)c1	-12	-1	14	7	-6	1.9	4064
C=CCN1C(=O)c2ccccc2Sc2ccc(C(=O)N3CCN(C)CC3)cc21	-26	-1	7	-7	-7	-10.0	2455
Cc1c(OC(C(=O)O)c2ccccc2)ccc2c1oc(=O)c1ccccc12 (stereo not drawn)	-6	-2	-13	13	-4	9.7	3900
O=C(OCc1cc(Cl)ccc1OC(F)F)c1cc(S(=O)(=O)O)ccc1O	/	1	5	10	/	2.0	/
COCC(=O)N1CCCC(C(=O)c2ccc(-c3ccccc3)cc2)C1 (stereo not drawn)	-32	21	3	13	-5	1.5	4258
Cc1ccc(Cl)cc1NC(=O)Cn1cc(C(F)(F)F)cc(Cl)c1=O	-10	1	6	-6	-26	5.3	2470
CC(C)Oc1cccc(NC(=O)c2cnccc2C(F)(F)F)c1	-19	7	2	7	-4	0.4	5461
O=C(NCC1CCCO1)NC12CC3CC(CC(C3)C1)C2 (stereo not drawn)	-13	20	8	9	-21	3.9	9441
NC(CCC(=O)O)C12CC3CC(CC(C3)C1)C2 (stereo not drawn)	-13	6	9	4	-1	3.8	2893
CN(C)c1ccc(N2CC(C)(C)C2=O)cc1	-23	17	5	3	8	12	5193

Continued:
SMILES	PrP 5UTR inh	Mtb hypoxia rep	Mtb hypoxia rep growth	ugtP null kill	BJeLR lethal	Sa RN4220 lethal	Bead autofluor
S=c1nc(C23CC4CC(CC(C4)C2)C3)nc2sccn12	/	11	-3	-1	1	2.0	/
CCOC(=O)CSc1ccc2nnc(-c3cccnc3)n2n1	-1	3	5	14	4	6.7	5540
FC(F)(F)c1cnc(NN=Cc2ccncc2)c(Cl)c1	/	2	3	0	/	3.8	/
CCn1cc(C2C3=C(CC(C)(C)CC3=O)N(c3ccccc3)C3=C2C(=O)CC(C)(C)C3)c(C)n1	-26	-11	16	3	-3	8.4	2423
Cc1cccc(N=N/C(=C\O)C(=O)c2ccc(Br)cc2)c1	-18	/	/	/	6	/	4044
Cc1csc(NC(=O)C(Cc2ccccc2)n2cccc2)n1 (stereo not drawn)	-14	10	2	12	0	3.2	6337
Cc1cc(C)cc(N2CC(C)Cn3c2nc2c3c(=O)[nH]c(=O)n2C)c1 (stereo not drawn)	-26	-6	0	1	1	4.6	3744
Cc1cc(C(=O)N2CCCC(N3CCN(c4cccc(Cl)c4)CC3)C2)n(C)n1 (stereo not drawn)	-1	-3	1	-4	3	-1.0	4862
CC(Sc1nnnn1-c1ccc(O)cc1)c1nc2ccccc2c(=O)[nH]1 (stereo not drawn)	-1	14	12	6	6	5.9	3444
O=C(Cn1nnc(-c2ccccc2)n1)N/N=C/c1cc([N+](=O)[O-])ccc1O	-7	/	/	/	-8	/	10875
COc1cccc(C(=O)Nc2cccc(C(=O)N3CCOCC3)c2)c1	-21	5	-1	4	-4	1.2	3329
Cc1ccc(S(=O)(=O)N2CCCC2C(=O)Nc2ccc(O)cc2)cc1 (stereo not drawn)	-20	/	/	5	-13	4.3	5956
COc1ccc(NC(=O)n2nc(OC(=O)c3cccs3)cc2N)cc1	-37	7	5	11	0	9.7	4167
COc1cccc(C(=O)Nc2cc(Cl)c(O)c(Cl)c2)c1	-4	11	1	0	12	-1.9	3877
Cc1ccc(-n2ncc(C(=O)Nc3cc(Cl)cc(Cl)c3)c2C2CCNCC2)cc1C	-24	2	-1	-6	39	-0.9	2672
COc1ccc(-n2nc(C(=O)NCC(=O)Nc3cc(OC)c(OC)c(OC)c3)c3ccccc3c2=O)cc1	-12	10	2	0	-2	0.1	3974
COc1ccc(CNC(=O)Cn2nc([N+](=O)[O-])c(Br)c2C)cc1OC	0	5	3	12	6	1.8	3550
CCN(C(=S)NC(=O)CCc1ccccc1)c1ccccc1	-18	4	4	6	12	5.2	2583
O=S(=O)(c1ccc(S(=O)(=O)N2CCC(O)CC2)cc1)N1CCCC1	-10	-2	-1	6	8	-0.3	3598
CC(C)(C)c1ccc(-c2noc(CCC(N)=O)n2)cc1	44	17	15	-6	0	7.4	9451

Compounds were not picked by outcome; overall some 4% were active at least once.
